Compound activity (PubChem BioAssay)
HNF4A DNA FP: change in binding of human HNF4 alpha to DNA; P41235; HNF4a-FITC DNA binding, fluorescence polarization, 1 h; activity change, % at 10 µM; actives 0.3% (n = 360,000); in the data active = activity change above about 30%, passing the limit was not always enough;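 also: controls were the assay level and a saturating level of protein; the project sought stronger binding though the title names inhibitors; some compounds called inactive have numbers as strong as hits; positive values seem to mean higher polarization but the record does not say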
Beta2AR agonist: activates human beta-2 adrenergic receptor causing internalization. Am2.2-beta2AR cells, FAP receptor internalization, flow cytometry; reference of the scale not given here. response, % (test concentration not listed). actives 0.43% (n = 340,000);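 active = response above a set limit, near 3 SD of response in nonfluorescent compounds, cut at about 42% in these data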;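 also: stock transfer was 100 nL into about 11 µL; a reference agonist was the positive control; negative values mostly stem from fluorescent compounds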
Target sequence (P07550 whole entry, looked up): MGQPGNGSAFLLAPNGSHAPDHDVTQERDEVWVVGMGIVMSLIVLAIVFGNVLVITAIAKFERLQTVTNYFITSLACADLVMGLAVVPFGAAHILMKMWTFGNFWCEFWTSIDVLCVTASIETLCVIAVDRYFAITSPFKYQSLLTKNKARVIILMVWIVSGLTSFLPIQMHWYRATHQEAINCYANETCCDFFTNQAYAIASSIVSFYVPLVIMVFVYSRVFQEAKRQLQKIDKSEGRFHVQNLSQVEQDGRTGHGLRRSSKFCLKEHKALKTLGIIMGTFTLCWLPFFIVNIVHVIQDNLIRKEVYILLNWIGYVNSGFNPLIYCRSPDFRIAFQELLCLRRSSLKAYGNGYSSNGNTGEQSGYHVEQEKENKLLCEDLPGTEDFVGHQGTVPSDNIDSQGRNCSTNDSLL
Ecoli growth: E. coli growth inhibition. Escherichia coli growth, OD600, 23 h; active compounds read low. OD600 absorbance (no concentration beside the values). actives 0.21% (n = 330,000);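 active = OD600 absorbance below the run mean of sample wells minus 3.6 SD, in any replicate, cut at about 0.56 in these data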;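 also: stock transfer was 300 nL into about 60 µL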
UCH37 inh: inhibitors of human deubiquitinating enzyme UCH37; inhibition, % (concentration not given with the values); purified proteasome/UCH37, Ub-AMC cleavage fluorescence; Q9Y5K5; actives 0.33% (n = 330,000);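 active = mean of two replicates above 20%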;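 also: 0% = compound-free wells with enzyme and 100% = wells lacking proteasome; stock transfer was 100 nL into about 20 µL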
Target sequence (Q9Y5K5 whole entry, looked up): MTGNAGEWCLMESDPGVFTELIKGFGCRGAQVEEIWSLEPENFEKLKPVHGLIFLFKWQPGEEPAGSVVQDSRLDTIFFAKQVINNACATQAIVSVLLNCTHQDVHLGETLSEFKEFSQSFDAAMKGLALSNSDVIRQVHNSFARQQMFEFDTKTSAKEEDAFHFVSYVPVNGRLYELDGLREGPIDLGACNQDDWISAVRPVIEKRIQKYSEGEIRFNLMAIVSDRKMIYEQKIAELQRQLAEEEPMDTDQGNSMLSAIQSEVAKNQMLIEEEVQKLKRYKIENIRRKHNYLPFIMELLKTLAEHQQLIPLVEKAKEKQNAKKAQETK
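Material: human UCH37 enzyme supplied as purified proteasome complex / Amount: 0.15 nM proteasome as dispensed / Buffer or medium: pH 7.4 Tris-HCl (50 mM) with ovalbumin, ATP-MgCl2, DTT / Times: preincubation 30 min, reaction 25 min, room temperature / Technique: AMC fluorescence from Ub-AMC cleavage, excitation 355 nm, emission 460 nm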
ALR H2O2 inh: blocks human ALR sulfhydryl oxidase activity; inhibition, % (test concentration not listed); AID 485317; actives 3.8% (n = 290,000); P55789; purified ALR, DTT oxidation, H2O2 HRP-luminol luminescence;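 active = mean and each replicate at 75% or more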;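 also: stock transfer was 7.5 nL into about 7.5 µL; 0% = neutral wells and 100% = wells with inactivated enzyme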
Target sequence (P55789 whole entry, looked up): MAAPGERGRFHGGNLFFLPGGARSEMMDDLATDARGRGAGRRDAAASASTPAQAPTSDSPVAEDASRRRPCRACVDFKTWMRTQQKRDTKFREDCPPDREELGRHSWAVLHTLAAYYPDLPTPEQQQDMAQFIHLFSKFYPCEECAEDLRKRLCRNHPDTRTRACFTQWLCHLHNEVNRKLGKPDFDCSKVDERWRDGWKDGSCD
LANA-H2B inh: blocks KSHV LANA binding to histone H2A/H2B. Q9QR71. cell-free LANA-H2A/H2B peptide, fluorescence polarization. inhibition, % (test concentration not listed). actives 0.6% (n = 320,000); in the data active = inhibition mostly above about 10%, no sharp cut-off; inactive = mostly below about 6.7%;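 also: stock transfer was 7.5 nL into about 10 µL; 0% = median of vehicle wells and 100% = median of positive control wells; one replicate is shown; the record names a cut of 25% in any replicate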
FGF22 binding: shifts melting point of recombinant human FGF22; Q9HCT0; recombinant FGF22 thermal shift, SYPRO orange fluorescence; percent of sucrose octasulfate shift, DMSO zero; calls only at 9.99 µM; actives 1.5% (n = 340,000); AID 651658;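 active = melting point raised past a set limit in the mean and every replicate; three in four hits are not shown here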
An asterisk follows results filed as active; i = inactive; . = no result given. An excerpt; rates above refer to the full screens.

SMILES	HNF4A DNA FP	Beta2AR agonist	Ecoli growth	UCH37 inh	ALR H2O2 inh	LANA-H2B inh	FGF22 binding
COc1ccccc1C(=O)NNC(=O)c1nn(Cc2ccccc2)c(=O)c2ccccc12	-0.4	-9	0.71	0.0	-6	-2.0	i
COCCCNC(=S)NC(=O)c1ccc([N+](=O)[O-])cc1	-1.2	-1	0.67	2.0	-28	0.6	i
COC(=O)c1ccc(CN(c2ccc(C(=O)O)c(O)c2)S(=O)(=O)c2ccc(Cl)c([N+](=O)[O-])c2)cc1	-1.9	19	0.7	2.7	-1	2.0	i
COc1cccc(CNC(=O)N2CCN(c3ccccc3Cl)CC2)c1	-0.5	0	0.63	1.2	-11	-0.4	i
CC(C)C(=O)N1CCC(c2nc(-c3ccc(S(=O)(=O)N4CCCC4)cc3)no2)CC1	3.9	1	0.66	0.0	-1	-6.8	.
CCOc1ccc(-c2nc(N)ncc2Oc2cccc(OC)c2)c(O)c1	-1.2	13	0.69	0.2	-8	1.2	.
O=S(=O)(Nc1ccc(-n2cccc2)cc1)c1ccc(F)cc1	0.1	-1	0.66	2.2	15	-5.1	i
Cc1ccc(C(C)(C)C)cc1S(=O)(=O)N1CCC(C(=O)N2CCN(c3ccc(O)cc3)CC2)CC1	11	0	0.7	2.9	48	3.0	i
CSc1nc2c(c(=O)[nH]1)C(c1ccc(Br)cc1)CC(=O)N2 (centres undefined)	2.5	-4	0.71	1.2	-4	-7.9	i
CC(OC(=O)c1ccc(Cl)nc1)C(=O)NC(C)(C)C (centres undefined)	7.3	9	0.65	2.6	-9	1.4	i
CCCn1c(Sc2nnnn2-c2ccccc2)n[nH]c1=O	-5.8	-4	0.7	3.0	-12	-1.5	.
O=C(O)c1cccc(N2C(=O)c3cccc4cccc(c34)C2=O)c1	-2.0	5	0.6	-12	-1	-0.9	i

Only FGF22 binding and UCH37 inh, for some of the entries so far:
| smiles | FGF22 binding | UCH37 inh |
| --- | --- | --- |
| COc1cccc(CNC(=O)N2CCN(c3ccccc3Cl)CC2)c1 | i | 1.2 |
| Cc1ccc(C(C)(C)C)cc1S(=O)(=O)N1CCC(C(=O)N2CCN(c3ccc(O)cc3)CC2)CC1 | i | 2.9 |
| COc1ccccc1C(=O)NNC(=O)c1nn(Cc2ccccc2)c(=O)c2ccccc12 | i | 0.0 |
| O=C(O)c1cccc(N2C(=O)c3cccc4cccc(c34)C2=O)c1 | i | -12 |
| CC(OC(=O)c1ccc(Cl)nc1)C(=O)NC(C)(C)C (centres undefined) | i | 2.6 |
| CC(C)C(=O)N1CCC(c2nc(-c3ccc(S(=O)(=O)N4CCCC4)cc3)no2)CC1 | . | 0.0 |

Continuation.
SMILES	HNF4A DNA FP	Beta2AR agonist	Ecoli growth	UCH37 inh	ALR H2O2 inh	LANA-H2B inh	FGF22 binding
O=C(CCN1CCOCC1)N1CCc2c([nH]c3ccccc23)C1c1cccc(Cl)c1 (centres undefined)	6.1	1	0.63	23*	.	-2.7	i
COc1ccccc1CCc1nnc(CCC(=O)NC(C)Cc2cccnc2)o1 (centres undefined)	3.7	-5	0.64	0.2	-10	0.1	i
Cc1cccc(C)c1NC(=O)CS(=O)CC(=O)N1CCN(c2ccccc2)CC1 (centres undefined)	0.5	5	0.7	1.0	42	-0.5	i
O=C(CN1CCCN(Cc2ccc(F)cc2Cl)C1=O)NC1CCCC1	1.3	-11	0.63	0.9	4	1.0	i
COC(=O)C(C#N)C(=C1C(=O)CC(C)(C)CC1=O)c1ccc(O)cc1 (centres undefined)	6.9	-3	0.69	0.6	-21	-0.8	.
CN(C)S(=O)(=O)N(CC(=O)N(Cc1ccccc1)Cc1ccccc1)c1ccccc1	-3.8	5	0.73	1.9	-8	-4.2	.
COc1ccc(CCn2cnc(=O)c(C#N)c2C)cc1OC	-2.3	2	0.69	0.4	-4	2.4	.
O=c1[nH]nc(Cc2ccccc2)c2ccccc12	2.9	-2	0.69	0.9	-16	-1.8	.
O=C(NCc1n[nH]c(=S)n1-c1ccc(Br)cc1)c1cccs1	-1.0	-9	0.68	5.0	46	12	i
C(#CC12CC3CC(CC(C3)C1)C2)CN1CCOCC1	-0.4	-9	0.69	2.0	-3	1.2	i
COc1ccc(C(=O)N2CC(c3ccc(Cl)cc3)CC2=O)cc1 (centres undefined)	2.1	14	0.69	3.5	-12	3.1	i
COc1ccccc1CNC(=O)C1CCCCN1S(=O)(=O)c1ccccc1 (centres undefined)	1.2	1	0.67	-0.5	.	-5.0	i

Complete entries, looked up by structure. Order of screens: HNF4A DNA FP, Beta2AR agonist, Ecoli growth, UCH37 inh, ALR H2O2 inh, LANA-H2B inh, FGF22 binding
Record of O=C(CN1CCCN(Cc2ccc(F)cc2Cl)C1=O)NC1CCCC1 → 1.3, -11, 0.63, 0.9, 4, 1.0, i
Record of O=C(NCc1n[nH]c(=S)n1-c1ccc(Br)cc1)c1cccs1 → -1.0, -9, 0.68, 5.0, 46, 12, i

Carrying on.
SMILES	HNF4A DNA FP	Beta2AR agonist	Ecoli growth	UCH37 inh	ALR H2O2 inh	LANA-H2B inh	FGF22 binding
CCCCN(C(=O)c1ccc(N2CCCC2=O)cc1)c1c(N)n(CCC)c(=O)[nH]c1=O	3.0	9	0.71	6.2	0	-4.9	i
Cc1onc(-c2ccccc2Cl)c1C(=O)N1CCN(c2ccc(F)cc2)CC1	-2.4	1	0.65	4.9	11	-2.7	i
COc1cc(C(=O)OCCN2CCOCC2)ccc1O	-1.1	3	0.75	-2.3	96*	-2.1	.
COc1ccc(-c2nc(CS(=O)CC(=O)NCCCN3CCCC(C)C3)c(C)o2)cc1OC (centres undefined)	-1.9	-4	0.66	3.7	99*	3.5	i
O=C(O)c1ccc(Nc2ccc3nonc3c2[N+](=O)[O-])cc1	-6.3	0	0.64	4.2	-12	3.0	i
CC1CN(C(=O)/C=C/c2ccc([N+](=O)[O-])s2)CC(C)O1 (centres undefined)	-1.3	2	0.71	5.0	-32	-1.1	.
C=CCOC(=O)c1[nH]c2c(c1C)C(=O)CC(c1ccco1)C2 (centres undefined)	.	.	0.72	1.1	0	-0.6	.
Cc1ccc(S(=O)(=O)N2CCC(C(=O)N[C@@H](C)C(=O)NCC3CCCO3)CC2)cc1 (some centres undefined)	-0.1	4	0.63	-0.7	.	1.1	.
CC(=O)N1CCN(c2ccccc2NC(=S)NC(=O)c2cc3ccccc3o2)CC1	4.7	0	0.71	4.8	8	2.3	i
COCCNC(=O)c1sc2ncn(CC(=O)Nc3ccc(C)c(Cl)c3)c(=O)c2c1C	-3.5	-4	0.7	6.1	-5	-1.4	i
COC(=O)c1ccc(Cn2nc(-c3cc(C)ccc3C)ccc2=O)cc1	-3.2	6	0.68	4.6	-6	2.2	i
O=C(CC1CC2CCC1C2)NCCc1ccc(Cl)cc1 (centres undefined)	1.6	-7	0.67	3.6	26	-2.7	i
CSCCC(C(=O)OCC(=O)c1ccc(C)c(C)c1)N1C(=O)c2cc(Cl)c(Cl)cc2C1=O (centres undefined)	1.6	4	0.74	4.9	-13	-1.7	.
COc1ccc(-c2noc(CN3CCCCC3c3nccn3C)n2)cc1 (centres undefined)	3.7	8	0.7	5.0	-6	2.5	i
CC(C)(C)OC(=O)N1CCC(c2cc(=O)n3[nH]cc(C(=O)NC4CCCC4)c3n2)CC1	3.3	17	0.7	-3.3	.	-0.6	i
Cc1cccc(NC(=O)c2n[nH]c([N+](=O)[O-])c2Br)c1C	0.5	11	0.66	7.5	0	6.4	i
CN1C(=O)C2(OCCCO2)c2cc(Cl)ccc21	-1.2	0	0.62	5.3	-18	2.8	i
O=c1[nH]c2c(c(=O)[nH]1)CCC2	-0.1	1	0.67	-0.8	-8	0.2	i
O=C(Cc1cc2ccccc2o1)NCc1ccc(F)cc1	6.5	-7	0.64	5.2	.	0.6	i
COc1ccc(CCNS(=O)(=O)c2cn(C)nc2C)cc1OC	0.3	-2	0.68	-1.2	-9	-1.3	i
CCN(CC)c1ccc(/C=C(\C#N)C(N)=S)cc1	103	0	0.7	13	-25	18	i
CC(=O)c1ccc(S(=O)(=O)Nc2cccc(S(=O)(=O)NC3=NCCC3)c2)cc1	1.5	2	0.7	5.4	100*	3.7	.
Cc1noc(C)c1CSc1ccccc1C(=O)N1CCN(c2ccccc2)CC1	-2.3	15	0.7	4.2	42	2.0	.
COc1cccc(NC(=S)NN=C2CCCCCC2)c1	2.0	-8	0.7	1.6	.	.	i
CCOc1ccc(NS(=O)(=O)c2ccc(C(=O)N(CC)CC(=O)NCc3cccs3)cc2)cc1	3.2	-8	0.63	-0.3	-4	-0.3	i
O=C(NNC(=O)C12CC3CC(CC(C3)C1)C2)c1ccco1	5.5	1	0.7	1.7	11	-8.1	i
CC[C@@H]1CCCCc2ccccc2[C@H](C(=O)C[C@@H](O)CC(C)=O)OC1=O	-0.5	-1	0.71	0.4	2	-2.5	i
COc1cccc(NC(=O)CN(C)C(=O)c2cccc(NS(=O)(=O)c3ccccc3)c2)c1	2.6	1	0.7	1.4	-1	11	i
COc1ccc(C(=O)N2CCN(C)C(=O)[C@@H]2C)cc1OC1CCN(C(C)=O)CC1	-3.0	-4	0.66	2.6	-4	0.5	i
CCOc1ccc(C(=O)NCC(=O)NCCCSc2ccccc2)cc1OCC	-0.7	7	0.68	3.2	3	-0.3	i
CCOC(=O)C1=C(COC(=O)C(C)(C)Oc2ccc(Cl)cc2)NC(=O)NC1C (centres undefined)	0.6	5	0.65	4.3	-3	0.8	i
NC(=O)c1ccc(NC(=O)CNC(=O)c2sc3ccccc3c2Cl)cc1	2.3	5	0.64	2.0	.	1.0	i
CC(=O)NC(Cc1ccc(F)cc1)C(=O)NC1CCN(C(=O)Nc2cccc(C)c2)CC1 (centres undefined)	-3.5	0	0.66	4.8	-5	8.8	i
Cc1ccccc1NC(=O)CN1C(=O)COc2ccc(S(=O)(=O)N3CCCC3)cc21	-3.9	4	0.63	0.5	-3	14*	i
CN(C)c1nc(N(C)C)nc(N(C#N)CN2C(=O)c3ccccc3C2=O)n1	.	.	0.68	0.9	-3	-1.7	.
COc1cc(OC)cc(C(=O)NC(C(=O)NCCN(C)C)C23CC4CC(CC(C4)C2)C3)c1 (centres undefined)	-0.8	-5	0.7	1.5	.	2.8	.
O=C(Nc1ccccc1N1CCOCC1)C1(c2ccc(Cl)cc2)CCC1	6.2	9	0.65	3.0	0	1.1	i
O=C(NCC(=O)N(c1cccnc1)C(C(=O)NC1CCCC1)c1ccc(F)cc1)c1ccco1 (centres undefined)	.	.	0.69	4.3	-14	-2.3	.
Cc1nn2c(-c3ccc(Cl)cc3)nnc2s1	0.0	9	0.72	1.0	0	-2.5	.
C=CCC(=O)NC1CCCc2c1cnn2-c1cc(F)cc(F)c1 (centres undefined)	0.9	-4	0.71	1.6	.	-8.0	i
O=C(C1=C[C@H](c2ccc(Br)cc2)C[C@H](OCc2ccc(CO)cc2)O1)N1CCOCC1	0.3	-5	.	-0.1	-3	0.9	i
Cc1ccc2c(c1)NCCO2	0.4	2	0.72	2.0	12	3.7	.
CCCCCCN(C(=O)CCCCCN1C(=O)NC(c2cccc([N+](=O)[O-])c2)C(C(=O)OCc2ccccc2)=C1C)C(C(=O)NCCCC)c1ccc(OCC(=O)OC)c(C(=O)OC)c1 (centres undefined)	.	.	0.75	0.2	-6	-4.3	i
CCN(C(=O)COC(=O)/C=C/c1cccc(Br)c1)C1CCS(=O)(=O)C1 (centres undefined)	1.5	6	0.69	2.5	-3	0.5	i
COc1ccc(C(=C(CC(=O)O)C(=O)OC(C)(C)C)c2cc(OC)c(OC)c(OC)c2)cc1OC	0.9	-5	.	.	.	.	i
O=C1/C(=C/c2cccnc2)SC(=S)N1c1ccc(F)cc1	-0.3	-1	0.69	0.3	1	-2.1	i
O=C(CN1C(=O)/C(=C/c2ccccc2F)Sc2ccccc21)NCc1cccnc1	3.0	13	0.74	-61	4	-5.0	i
CC(OC(=O)c1ccc2ncsc2c1)C(=O)Nc1ncc(Cl)cc1Cl (centres undefined)	2.4	4	0.65	-2.7	-7	0.6	.
CC(C)CNC(=O)C1CCN(c2ccc(S(=O)(=O)N3CCOCC3)cc2Cl)CC1	0.4	-4	0.7	2.4	-6	3.2	.
Cc1cc2ccccc2nc1SCC(=O)N1c2ccccc2CC1C (centres undefined)	-4.2	-4	0.71	2.6	-2	0.0	.
